gsp antagonist – antagonists of gsp mutant (McCune-Albright syndrome); gsp-mutant cells, cAMP HTRF, 30 min; control for the full effect not named in the record; Potency, µM (highest dose often 76.9 µM), for inactives: at the top dose activity change, negative = inhibition, most hits filed as inhibitors; hit rate 0.4% among 340,000; active = falling curve of any shape with a large fitted effect; inconclusive = falling curve, mostly with a smaller effect; inactive = flat or rising curve; cell line not stated here;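 further: intracellular cAMP measured with PDE inhibitor Ro 20-1724 present during compound exposure; potency means the concentration at half of the fitted maximal effect; on the % scale 0 is the no-effect control and ±100 the full control effect; nearly all actives have a fitted effect of over 65% in size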
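Cells, 2000/well, grown 16–24 h in DMEM 10% FBS with 0.5 mg/ml G418, then compounds plus […] (300 uM addition stock), 30 min at 37C. cAMP read by HTRF (cAMP-d2 and anti-cAMP antibody-K in lysis buffer) after 30 min RT.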
ClpP mod – qHTS Assay for Activators of ClpP | ATP-dependent Clp protease proteolytic subunit (Bacillus subtilis (strain 168)), P80244 | purified B. subtilis ClpP, FRET peptide cleavage, 20 min | Potency, µM (doses to about 57.5 µM), without a hit: at the top dose activity change, negative = active | hit rate 1.9% among 340,000 | AID 651965, 2013; active = well fitted falling curve with a large enough effect; inconclusive = small, poorly fitted or top-dose-only effect; inactive = no such curve, though single readings can be large or run the other way; further: potency means the concentration at half of the fitted maximal effect; the source files actives as falling curves though it sought activators and does not explain the sign; nearly all actives have a fitted effect of over 65% in size; many hits overshoot -100%
Target sequence (P80244 whole entry, looked up): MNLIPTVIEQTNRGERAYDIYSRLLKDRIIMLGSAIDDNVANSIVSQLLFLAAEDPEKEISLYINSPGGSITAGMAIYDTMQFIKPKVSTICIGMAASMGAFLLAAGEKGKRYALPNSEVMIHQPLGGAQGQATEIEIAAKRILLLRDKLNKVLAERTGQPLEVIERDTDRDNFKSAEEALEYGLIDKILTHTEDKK
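Buffer: 100 mM Tris/HCl pH8, 100 mM KCl, 0.05% low protease BSA, 2.5% glycerol, 0.01% Tween-20. ClpP 10 microg/mL final; 20 min RT; delta FRET normalized to ADEP and DMSO controls.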
TRPML1 agonist – activates the human TRPML1 channel; Q9GZU1; TRPML1-expressing cells, Ca2+ dye fluorescence, FDSS; host cell line not named in the record; reference of the full effect not given here; activation, % (test concentration not listed); hit rate 0.12% among 410,000; AID 624414; in the data active = activation above about 50%; inconclusive = about 30% to 50%; inactive = below about 30%; further: 0% is about no effect; the text of the record puts the active cut at 80%
Target sequence (Q9GZU1 whole entry, looked up): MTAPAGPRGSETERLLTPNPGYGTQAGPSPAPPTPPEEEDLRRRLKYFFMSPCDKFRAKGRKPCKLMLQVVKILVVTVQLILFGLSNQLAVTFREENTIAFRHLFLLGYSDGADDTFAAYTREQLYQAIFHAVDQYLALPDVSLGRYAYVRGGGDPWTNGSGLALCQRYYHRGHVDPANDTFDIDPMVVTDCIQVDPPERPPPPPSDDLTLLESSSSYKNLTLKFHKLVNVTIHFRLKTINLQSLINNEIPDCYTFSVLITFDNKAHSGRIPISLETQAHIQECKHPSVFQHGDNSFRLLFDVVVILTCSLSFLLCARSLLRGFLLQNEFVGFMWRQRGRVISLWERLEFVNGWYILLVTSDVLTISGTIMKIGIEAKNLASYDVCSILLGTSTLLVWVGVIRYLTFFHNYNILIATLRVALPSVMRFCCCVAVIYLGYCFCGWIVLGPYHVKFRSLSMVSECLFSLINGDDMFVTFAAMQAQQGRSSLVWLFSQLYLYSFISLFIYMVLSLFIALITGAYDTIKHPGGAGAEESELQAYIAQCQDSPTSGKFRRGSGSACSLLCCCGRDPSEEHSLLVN
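TRPML1-DL cells, Tet-induced overnight (~16 h, 37 degrees C), loaded 45-90 min at room temperature with Ca8 no-wash calcium dye plus quencher. FDSS fluorescence: 10 s baseline, compound pin-transfer, 110 s agonist read, then EC80 54-4 (4uM final) and 110 s antagonist read.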
TRPML1 blocker – human mucolipin-1 channel inhibition; AID 624415; TRPML1-inducible cells, Ca2+ dye fluorescence, FDSS; hits give low values; inhibition of EC80 agonist-evoked calcium signal; Q9GZU1; activity change, negative = inhibition, % (test concentration not listed); hit rate 0.02% among 390,000; in the data active means activity change below about -50%; inconclusive means about -30% to -50%; inactive means above about -30%;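 further: stimulus is agonist 54-4 at its EC80 concentration; on the % scale 0 is the no-effect control and ±100 the full control effect; compound concentration not given in the record; the text of the record puts the active cut at -80%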
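Tet-induced TRPML1-DL cells loaded with Ca8 no-wash calcium dye were read kinetically on FDSS. Compound addition was followed by EC80 agonist 54-4 (4 uM final); inhibition was read over 110 s.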
gsp ag – activates gsp, the McCune-Albright syndrome mutation. gsp mutant cells, cAMP HTRF, 30 min; control for the full effect not named in the record. Potency, µM (top dose mostly 76.9 µM), without a hit: at the highest dose activation (cAMP increase), usual class: activators. hit rate 0.13% among 340,000; active = well fitted activation curve with a large enough effect; inconclusive = small, poorly fitted or top-dose-only effect, or another doubt; inactive = no such curve, though single readings can be large or run the other way; cell line not stated here;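 further: phosphodiesterase inhibitor Ro 20-1724 added with compounds to block cAMP breakdown; potency means the concentration at half of the fitted maximal effect; nearly all actives have a fitted effect of over 60% in size; about a fifth of the inactives were tested at one dose only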
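Cells stably selected in G418 were plated at 2000/well, grown 16-24 hr, then given compounds in DMSO with the PDE inhibitor […] (300 uM solution added) for 30 min at 37C; cAMP was read by HTRF.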
Menin MLL FP FL – menin-MLL binding inhibition, fluorescein peptide | AID 1766 | Fluorescence polarization, fluorescein-MLL peptide displacement from menin | 290,000 tested, under 10 active | FP activity change, % at 61.4 µM; inconclusive = falling polarisation curve, or a change in total fluorescence; inactive = total fluorescence flat and polarisation flat or rising; no compound was filed as active; the % refers to the polarisation; negative = inhibition;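 further: % of control where 0% means no effect; inhibitors lower the polarisation; unlabelled MLL peptide was the positive control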
* marks the source's active call; other numbers are inactive results; ? = inconclusive; · = not tested or not shown; & = joins results of further samples; [ ] = remark or other dose.

Below each compound: gsp antagonist, TRPML1 agonist, ClpP mod, gsp ag, TRPML1 blocker, Menin MLL FP FL
COc1ccc(C(C(=O)NCCC(C)C)N(CCN2CCOCC2)C(=O)Cn2nnc3ccccc32)c(OC)c1 (centres undefined)
    -7%, 1.9, ·, -2%[15.4 µM], -11, -2.5
CCOC(=O)N1CCN(c2ccc(C(=O)CC)cc2F)CC1
    -8%, -1.4, -1.4%, 5%, 22, 0.8
COc1ccc(NS(=O)(=O)c2cccc(C(=O)N/N=C/c3ccc(O)cc3)c2)cc1
    7%, -0.2, 0.3%, -6%[15.4 µM], -8, -0.3
CCOC(=O)c1cnc2ccccc2c1NCCc1ccc(OC)c(OC)c1
    -23%, -0.1&0.8, -8.7%&-6.6%, -68%[inhibitor], 19&3, 1.1
CC(C)(CNc1ccc([N+](=O)[O-])cc1C#N)N1CCOCC1
    5%, -0.8, -1.7%, -23%[15.4 µM], 2, 3.7
COc1ccccc1Nc1nnc(SCC2CCCCO2)s1 (centres undefined)
    4%, -0.8, ·, -3%[15.4 µM], 5, 0.1
O=c1[nH]c2ccccc2cc1CN(Cc1cccnc1)S(=O)(=O)c1ccc([N+](=O)[O-])cc1
    ?, 0.6, 0.4%, -25%, 22, ·
Cn1c(N)c(C(=O)COC(=O)Cc2ccc(Cl)c(Cl)c2)c(=O)n(C)c1=O
    -7%, -0.9, -1.4%, 27%, 53, ·
CS(=O)(=O)N1CCC(Oc2ccccc2C(=O)NCCCc2cccnc2)CC1
    -2%, -0.1, ·, ?, -1, -1.9
COc1ccc(C(C)=O)cc1COc1ncnc2ccccc12
    7%, 0.2, -0.6%, 78%[15.4 µM], -3, 7.1
CCOc1ccc(N(CC(=O)Nc2cccnc2)S(C)(=O)=O)cc1
    5%, 0.2, ·, 10%, -13, -2.4
O=C(NCC(c1cccs1)N1CCOCC1)c1cccnc1 (centres undefined)
    -4%, 0.3, -8.1%, ?, -15, ·
O=C(CCc1c[nH]c2ccccc12)OCC(=O)c1ccccc1
    ·, 0.6, -4.4%, 5%, -12, ·
C/C(CC(=O)Nc1ccc2c(c1)OCO2)=N\NC(=O)C(c1ccccc1)c1ccccc1
    -21%, -0.6, 17%, -12%, 24, -0.8
CS(=O)(=O)NCc1ccc(C(=O)NCc2ccccc2)cc1
    4%, 0.8, -2.3%, -11%, -3, -0.4
C[C@@H]1CN(C(=O)c2nc3ccc(Cl)cn3c2CN(C)CCc2cnn(C)c2)C[C@H](C)O1
    -2%, -0.8, -5.0%, ?, -14, -9.1
COc1ccc(NC(=O)CCc2nnc3n(CC(C)C)c(=O)c4ccccc4n23)cc1OC
    ·, 0.4, -3.1%, ·, 10, ·
CN(C)c1ccc(C(=S)N2CCNCC2)cc1
    21%, -0.4, -9.2%, -32%[inhibitor], 8, 4.7
CCOC(=O)CC/C(C)=N\N=C1\SC(CC(=O)O)C(=O)N1c1ccccc1 (centres undefined)
    0%, -0.4, ·, -6%[15.4 µM], -15, 4.7
CC(C)C(=O)Nc1ccccc1C(=O)N/N=C/c1ccc([N+](=O)[O-])cc1
    -18%, -0.3, 0.8%, ?, 7, 2.3
Cc1ccc(C(=O)CCS(=O)(=O)c2ccc(Cl)cc2)cc1
    4%, 1.1, 0.9%, -31%[inhibitor], -17, -1.9
Cn1nnc(NC(=S)NC(=O)c2cc3ccccc3o2)n1
    0%, 0.9, -1.9%, -1%, -4, ?
COc1ccccc1N1CCN(Cc2nc(N)nc(Nc3ccc(C)c(Cl)c3)n2)CC1
    5%, 2.1, -2.2%, 2%, -1, -1.0
CC1(C)CN(C2CCCCC2)C(=O)[C@H]1CC(=O)Nc1ccc(Br)cc1
    ·, -0.8, -0.3%, -45%[inhibitor], -5, ·
CC(C)C(C(=O)NC1CCCCC1)N(CC1CCCO1)C(=O)CNS(=O)(=O)c1ccc(F)cc1 (centres undefined)
    1%, -0.9, 0.7%, -57%[inhibitor], -1, 5.6
O=C(O)CC(c1cccc([N+](=O)[O-])c1)N1Cc2ccccc2C1=O (centres undefined)
    7%, 0.4, ·, ?, 12, 0.6
CC(=O)Nc1ccc(S(=O)(=O)N2CCN(c3cc(C(F)(F)F)ccn3)CC2)cc1
    -3%, -0.3, ·, 6%[15.4 µM], -7, -0.5
C=CCn1c(C)c(/C=C/c2cc[n+](C)cc2)c2ccccc21
    ?, 4.0, ·, 10%, 2, ?
Cc1ccc(NC(=O)c2cccnc2C(=O)Nc2ccc(C)cc2)cc1
    -4%, 0.9, -1.5%, -72%[inhibitor], ?, -0.6
CC(=O)OCC(=O)Nc1c(C)cccc1C
    -12%, -0.1, -3.2%, 6%, -15, 4.2
COc1ccc(S(=O)(=O)N2CCOCC2)cc1NC(=O)CSc1nnc2n1CCCCC2
    15%, 1.4, 0.5%, 6%[15.4 µM], 13, ·
O=C(CN1C(=O)COc2ccc(Cl)cc21)Nc1nccs1
    9%, -0.2, 2.3%, -73%[inhibitor], 9, ·
CCc1ccc(NC(=O)CSc2nnc(CC)c(CC)n2)cc1
    -16%, 1.6&0.6, 1.6%&1.2%, -40%, 17&4, 2.3
Cc1cc(=O)[nH]c(SCCOc2ccc(OC(C)C)cc2)n1
    ?, 3.0, 0.1%, -35%[inhibitor], 3, -0.5
O=C(CSc1nnc(C2CC2)n1-c1ccccc1)N1CCNC1=O
    -4%, -0.2, 0.9%, 28%, -2, ·
O=CNCC(=O)NCCc1ccc(Cl)cc1
    9%, 0.3, -0.5%, 3%, -8, 0.3
C/C(=N/NC(N)=S)c1ccccc1[N+](=O)[O-]
    5%, 0.1, 0.7%, 9%, 4, 3.4
COc1ccc(CCC(=O)N2c3ccccc3CC2C)cc1 (centres undefined)
    -12%, 4.6, 0.5%, -25%, 6, 2.9
CC(C)(C)OC(=O)N1CCC(NC(=O)c2[nH]c(C(F)(F)F)nc2-c2ccccc2)CC1
    ·, -0.6, -1.7%, ·, 47, ·
Cc1cc(C)c2nc(NNC(=O)c3ccc(S(=O)(=O)N4CCc5ccccc5C4)cc3)sc2c1
    -4%, -0.2, -1.8%, -44%[inhibitor], 5, 0.3
O=C(NCCCn1ccnc1)c1cccc(Cl)c1
    22%, -0.7, 0.0%, -1%[15.4 µM], -12, -2.4
O=C1C=C(NNC(=O)c2ccncc2)CC(c2ccccc2)C1 (centres undefined)
    2%, 10, 0.9%, 3%, -18, ?
CCN(C(=O)COC(=O)/C=C/c1ccccc1[N+](=O)[O-])C1CCS(=O)(=O)C1 (centres undefined)
    10%, -0.4, ·, 45%[15.4 µM], -16, -5.1
Cc1ccc2[nH]c(C(=O)N/N=C/c3ccc([N+](=O)[O-])cc3)c(C)c2c1
    4%, 1.5, 0.5%, -1%, -4, 0.0
CCOCCCNC(=O)c1ccc2c(c1)N(CC)C(=O)c1ccccc1S2=O (centres undefined)
    -3%, 0.2, 0.0%, -27%, 11, 3.7
CCc1c(C)nc(SCC(=O)Nc2nc(-c3ccc(OC)cc3)cs2)[nH]c1=O
    ·, 0.5, ·, -11%[15.4 µM], -3, -0.6
O=C(NCc1ccccc1Cl)c1ccc(CSCc2cccc(F)c2)o1
    ·, 6.7, -2.2%, ·, -3, ·
Cc1nc2c(ccc3nc(NC(=O)C4CC4)sc32)s1
    11%, 1.5, ·, -2%[15.4 µM], -19, 5.1
COCCN1CCN(C(=O)c2ccc3oc(CCc4ccccc4)nc3c2)CC1
    15%, 0.5, -0.6%, -8%, -17, ·
O=C(O)c1ccc(COc2ccc([N+](=O)[O-])cc2)o1
    5%, 1.3, ·, 12%, -18, 9.1
C=CCn1c(SCC(=O)O)nnc1-c1ccc(C(C)(C)C)cc1
    -4%, -0.3, -4.9%, -29%, -13, -0.9
CCc1nn(CC(=O)NCc2cccc(OC)c2OC)c(=O)c2cc3occc3n12
    ·, 0.5, -3.2%, ·, 2, ·
CC(=C1C(=O)c2ccccc2C1=O)N1CCC(C(N)=O)(N2CCCCC2)CC1
    -2%, -0.5, -2.0%, 7%, -4, -6.7
O=C(NCCc1cnc[nH]1)c1cccs1
    8%, 0.6, -0.8%, -36%[inhibitor], -1, -3.2
COc1ccccc1-c1nnc2sc(COc3ccccc3)nn12
    7%, 0.9, -0.1%, 20%, 0, 1.4
Nc1cc(C(=O)O)ccc1Nc1ccccc1
    ?, 1.4, 10µM*, 8%, -6, -1.0
O=C(CSc1ccc2nnc(CCNC(=O)c3ccccc3)n2n1)Nc1ccccc1F
    3%, -0.2, -6.8%, ?, -11, 3.9
CCn1cc(C(=O)N2CCN(c3ccc(F)cc3)CC2)c(=O)c2cc(S(=O)(=O)N(C)C3CCCCC3)ccc21
    ·, -1.5, 0.9%, ·, 0, ·
CCCn1c2c(c(=N)c3c1CCC3)CCC2
    7%, -0.4, 0.5%, -14%[15.4 µM], 18, -0.6
O=C(NCc1ccc(Cl)cc1)C1CCC(CNc2c(N3CCOCC3)c(=O)c2=O)CC1 (centres undefined)
    1%, 0.2, -1.2%, ?, 1, 0.0

Reprinted at random: 3 entries already listed
Below each compound: gsp antagonist, TRPML1 agonist, ClpP mod, gsp ag, TRPML1 blocker, Menin MLL FP FL
O=C(NCc1ccc(Cl)cc1)C1CCC(CNc2c(N3CCOCC3)c(=O)c2=O)CC1 (centres undefined)
    1%, 0.2, -1.2%, ?, 1, 0.0
O=C(NCc1ccccc1Cl)c1ccc(CSCc2cccc(F)c2)o1
    ·, 6.7, -2.2%, ·, -3, ·
CC(=C1C(=O)c2ccccc2C1=O)N1CCC(C(N)=O)(N2CCCCC2)CC1
    -2%, -0.5, -2.0%, 7%, -4, -6.7

Later entries
Below each compound: gsp antagonist, TRPML1 agonist, ClpP mod, gsp ag, TRPML1 blocker, Menin MLL FP FL
O=C1[C@H]2[C@@H](/C=C/c3ccccc3)N3C(=O)CN(Cc4ccccn4)C(=O)[C@@]3(Cc3ccccc3)[C@H]2C(=O)N1c1ccccc1
    -1%, -0.2, -2.8%, 17%, -1, 4.3
Cc1ccc(SCc2cc(=O)[nH]c(/N=C(\N)Nc3ccc(C)c(C)c3)n2)cc1
    8%, 0.9, -2.1%, 23%, 31, 4.4
CC1(c2ccc(OC(F)F)cc2)NC(=O)N(/N=C/c2c(O)ccc3ccccc23)C1=O (centres undefined)
    -10%, 10, 1.4%, 10%, -13, 5.1
CCn1c(SCc2nc3scc(-c4ccccc4)c3c(=O)[nH]2)nnc1-c1ccc(Cl)cc1
    -13%, 0.8, -6.6%, 21%, 7, -1.3
COc1ccc(N(C(=O)Cn2nnc(-c3ccccc3F)n2)C(C(=O)NCC2CCCO2)c2ccc(Cl)cc2)cc1 (centres undefined)
    -5%, 0.7, ·, 11%[15.4 µM], 10, -4.1
O=[N+]([O-])c1cccc(-c2nnc3cccc(Cl)n23)c1
    0%, 0.1, ·, 3%, 30, 2.4
